CBX7 inh – CBX7 inhibition, primary AlphaScreen; AlphaScreen His6-CBX7 / biotin-H3K27me3 peptide binding; active compounds read low; AID 1224903; 66,000 tested, 1.1% active; O95931; normalised signal (fraction of DMSO) (test concentration not listed); in the data active = normalised signal below about 0.5;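 also: 100 nL library stock added to about 20 µL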
Target sequence (O95931 whole entry, looked up): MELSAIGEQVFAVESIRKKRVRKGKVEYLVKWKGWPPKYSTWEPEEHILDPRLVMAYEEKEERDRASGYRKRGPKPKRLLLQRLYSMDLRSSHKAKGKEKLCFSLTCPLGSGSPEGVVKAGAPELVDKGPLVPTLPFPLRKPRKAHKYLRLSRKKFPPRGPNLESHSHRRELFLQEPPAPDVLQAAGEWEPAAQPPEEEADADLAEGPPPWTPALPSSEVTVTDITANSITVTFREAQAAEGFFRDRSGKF
CBX7 inh z-score – also measured in CBX7 inh; calls as there; z-score; measured here: z-score of CBX7 signal; some inactives read as strong as hits; reference of the scale not given here;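 same signal on another scale; lower means less binding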
* hit, by the source's call; & = joins results of further samples. These rows are one share of the data. The share of hits here may be higher or lower than overall.

SMILES | CBX7 inh | CBX7 inh z-score
CCOC(=O)c1[nH]c2c(c1CCc1cccc(OC)c1)C(=O)CC(c1ccc(OC)c(OC)c1)C2 (configuration not stated) | 0.806 | -2.49
O=C(c1nc(-c2ccncc2)no1)c1cccs1 | 1 | 0.0564
CCCCNC(=O)CSCc1nc(-c2ccc(OC)cc2)oc1C | 1.08 | 0.702
Cc1c(C(=O)NCCc2ccc(Cl)cc2)oc2ccc(S(=O)(=O)N3CCCC3)cc12 | 0.916 | -1.63
Cc1oc(-c2ccc(Cl)cc2)nc1CN1CCC(C(=O)NCCCN2CCOCC2)CC1 | 1.07 | 2.77
CC(C)(C)c1ccc2c(c1)N(CC(=O)NC1CC1)C(=O)CO2 | 1.01 | 0.194
COc1cc(NC(=O)CCc2c(C)nc3cc(-c4ccccc4)nn3c2C)cc(OC)c1 | 0.961 | -1.17
Cc1cc(N2CCCCC2)nc2ccc(NC(=O)c3ccccn3)cc12 | 0.962 | -0.699
O=C(NCCc1ccccc1)c1ccc2c(c1)N(Cc1ccccc1)C(=O)c1ccccc1S2 | 0.951 | -0.456
CCN1CCN(C(c2cccs2)C(C)NC(=O)c2ccc3c(c2)OCO3)CC1 (configuration not stated) | 1.02 | 0.167
CCN1CCN(C(=O)c2cn(C3CCCC3)c(=O)c3c2c2ccccc2n3C)CC1 | 0.998 | -0.0575
COc1ccc(-c2noc(COc3ccc(C(C)(C)C)cc3Br)n2)cc1 | 0.989 | -0.136
COc1ccc(N(CC(=O)Nc2ccc3c(c2)OCCO3)S(=O)(=O)c2c(C)noc2C)cc1 | 0.927 | -0.523
O=C(Nc1ccc(-c2nc3ncccc3o2)cc1)c1cccnc1Cl | 0.868 | -1.43
COc1ccc(CC(=O)Nc2ccc(-c3noc(-c4ccccc4C)n3)cc2)cc1 | 1.02 | 0.231
COc1ccc(-c2noc(C(C)(C)Oc3ccc(Cl)cc3)n2)cc1OC | 1.17 | 5.03
COc1cccc(-c2nn(C)c3sc(C(=O)NCCN4CCN(c5ccccc5F)CC4)cc23)c1 | 0.905 | -2.66
CCc1ccc(NC(=O)c2cc(C(C)C)on2)cc1 | 1.07 | 0.677
O=C(CN1C(=O)COc2ccc(S(=O)(=O)N3CCCCCC3)cc21)NCCc1ccccc1 | 1.03 | 1.62
COC(=O)CNC(=O)c1cnc(Nc2ccccc2OC)c2ccccc12 | 1.27 | 2.17
CCOC(=O)N1CCC(NC(=O)C(C)N2C(=O)CC(C)(C)Sc3ccccc32)CC1 (configuration not stated) | 1.09 | 3
CCCN1C(=O)CC(c2ccccc2)Sc2ccccc21 (configuration not stated) | 1.18 | 2.99
COc1cc(NC(=O)c2cc(-c3ccc(O)cc3)on2)c(OC)cc1Cl | 1 | 0.157
O=C(NC1CCCCCCC1)c1nnc(Cc2ccc(F)cc2)o1 | 1.04 | 0.533
Cc1ccc(N2CCN(CC(O)Cn3c(C)c(C)c4ccccc43)CC2)cc1 (configuration not stated) | 0.624 | -7.73
O=C(NCc1ccccc1Cl)c1cc(-c2ccncc2)nc2ccccc12 | 0.65 | -0.394
O=C(Nc1ccc(Cc2ccncc2)cc1)Nc1cc(F)c(F)cc1Cl | 0.945&0.923 | -1.02&-0.338
Cc1ccc2c(c1)c1c(n2CC(O)CN2C(=O)CNC2=O)C(=O)CCC1 (configuration not stated) | 1.04 | 0.847
O=C(CCCCCn1c(=O)c2sccc2n(Cc2ccccc2F)c1=O)NCc1ccc(F)cc1 | 0.956 | -0.941
O=C(CN1C(=O)CSc2ncccc21)N1CCN(c2ccccc2)CC1 | 1.07 | 2.85
COC(=O)Cn1ncc2c(C)n(Cc3ccccc3)c(C)c2c1=O | 0.997 | -0.0297
Cc1nc2c(-c3ccc(F)cc3)c(C)nn2c(C)c1CCC(=O)NC1CCCCCC1 | 1.07 | 0.473
Fc1ccc(CSc2nc3ccc(Cl)cc3[nH]2)cc1 | 1.1 | 4.09
CCCc1cc(C(=O)NCc2ccc(F)cc2)no1 | 1.07 | 2.39
CSc1cccc(NS(=O)(=O)c2ccc3[nH]cc(C(=O)N4CCOCC4)c(=O)c3c2)c1 | 0.866 | -2.49
COc1ccc(-n2ncc3c(NCCCN4CCOCC4)ncnc32)cc1 | 1.1 | 1.53
CC(C)OCCCNC(=O)c1cc2c(s1)CS(=O)(=O)C2 | 1.03 | 0.947
c1ccc(Cn2c(CNc3nc4ccccc4n3CCN3CCOCC3)nc3ccccc32)cc1 | 0.91 | -2.37
COc1cccc(C(=O)Nc2ccc3oc(-c4ccccc4)nc3c2)c1 | 1.16 | 2.43
COc1cc(OC)cc(-c2nnc(SCC(=O)N3CCCC3)o2)c1 | 1.04 | 1.61
CCOc1ccccc1NC(=O)CCc1nc2cccnc2n1Cc1ccc(OC)cc1 | 0.958 | -0.809
Cc1ccc(-c2nc3cc(C)c(C)cc3nc2-c2ccc(C)cc2)cc1 | 1.41 | 1.45
O=C(Nc1c2c(nn1-c1cccc(Cl)c1)CS(=O)(=O)C2)c1cccc(F)c1 | 0.912 | -0.577
Cc1nc2ccc(S(=O)(=O)NC(CC(C)C)C(=O)Nc3nccs3)cc2s1 (configuration not stated) | 0.947 | -1.59
Cc1c(C(=O)Nc2ccc(F)c(Cl)c2)sc2ncn(CC(=O)N3CCC(C)CC3)c(=O)c12 | 1.18 | 1.92
O=C(c1cc(-c2ccc(Cl)cc2)on1)N1CCN(Cc2ccccc2)CC1 | 1.13 | 0.173
COc1ccc(S(=O)(=O)N(CC(=O)Nc2ccccc2)c2ccc(C)cc2)cc1 | 1.11 | 2.47
Cc1cccn2c(Nc3ccc(C(C)C)cc3)c(-c3ccccn3)nc12 | 0.262* | -1.28*
Cc1ccc(C(=O)Nc2nnc(CCS(=O)(=O)c3ccc(C)cc3)s2)cc1 | 1.02 | 0.969
CN1CCN(C(=O)c2cc(-c3ccccc3O)on2)CC1 | 1.01 | 0.384
COc1ccc(Nc2ncc(C(=O)NC3CCCC(C)C3C)c3ccccc23)cc1 (configuration not stated) | 1.2 | 2.2
CS(=O)(=O)NCCc1nc(-c2ccccc2)cs1 | 0.993 | -0.196
Clc1ccc(CN2C3=NCCCN3c3ccccc32)c(Cl)c1 | 1.05 | 1.51
CN(CCCNC(=O)c1cc(-c2ccncc2)nc2ccccc12)Cc1ccccc1 | 1.02 | 0.611
CC(C)c1ccc2oc(-c3ccc(NC(=O)c4ccccc4F)cc3)nc2c1 | 1.03 | 0.68
COc1ccc(CNC(=O)C2CCN(Cc3nc(-c4ccc(Cl)cc4)oc3C)CC2)cc1 | 1.14 | 2.03
O=C1CC(c2ccccc2F)c2cc3c(cc2N1)OCCO3 (configuration not stated) | 0.819 | -0.507
O=C(Nc1ccc2oc(-c3cccc(Cl)c3)nc2c1)c1ccc2c(c1)OCCO2 | 1.02 | 1
CCCOc1ccc(OC(=O)c2sc3ncn(Cc4ccccc4F)c(=O)c3c2C)cc1 | 1.11 | 1.68
CCCc1cc(=O)n2[nH]c(-c3ccccc3)cc2n1 | 1.02 | 0.615

More records
SMILES | CBX7 inh | CBX7 inh z-score
CCN1C(=O)c2ccccc2S(=O)c2ccc(C(=O)N3CCc4ccccc4C3)cc21 (configuration not stated) | 0.917 | -2.17
CCCNC(=O)C1CCN(C(=O)c2cc3sccc3n2Cc2ccc(Cl)cc2)CC1 | 1.06 | 2.23
CC(NC(=O)C(=O)N1CCCCC1)C(c1cccs1)N1CCN(Cc2ccccc2)CC1 (configuration not stated) | 1.14 | 1.44
Cc1cc(NC(=O)c2cc(-c3ccc(Cl)s3)nc3ccccc23)no1 | 1 | 0.0619
Cc1nc2ccc(S(=O)(=O)N(C)CC(=O)Nc3ccc(F)cc3)cc2s1 | 1.12 | 0.714
O=C(CCc1nc(-c2ccccc2F)no1)NCCN1CCN(c2ccccc2F)CC1 | 1.01 | 0.465
O=C(Nc1nc(-c2ccc(Cl)c(Cl)c2)cs1)C1CC1 | 1.04 | 0.914
Cc1cc2ccccc2c(=O)n1CC(=O)N1CCC(C)CC1 | 1.01 | 0.24
COc1ccc(CCNC(=O)c2noc3c2CCCC3)cc1OC | 1.03 | 0.157
CCc1ccccc1NC(=O)Cn1ccnc1 | 0.933 | -1.49
COc1ccc(CNC(=O)CCN2C(=O)COc3ccccc32)cc1 | 0.984 | -0.481
CCOc1ccc(-c2nc(CSCC(=O)NCC(OCC)OCC)c(C)o2)cc1 | 0.947 | -0.73
COc1ccc(OC)c(NC(=O)Cn2cnc3sc(C)c(C)c3c2=O)c1 | 1.01 | 0.0846
O=C(Nc1nnc(Cc2ccc(F)cc2)s1)C1CCCCC1 | 0.975 | -0.105
COCCCNc1oc(-c2ccccc2F)nc1C#N | 1.08 | 0.947

Shown with each value named: entries from further up.
CCCNC(=O)C1CCN(C(=O)c2cc3sccc3n2Cc2ccc(Cl)cc2)CC1
- CBX7 inh: 1.06
- CBX7 inh z-score: 2.23
CC(NC(=O)C(=O)N1CCCCC1)C(c1cccs1)N1CCN(Cc2ccccc2)CC1 (configuration not stated)
- CBX7 inh: 1.14
- CBX7 inh z-score: 1.44
Cc1cc(NC(=O)c2cc(-c3ccc(Cl)s3)nc3ccccc23)no1
- CBX7 inh: 1
- CBX7 inh z-score: 0.0619
Cc1nc2ccc(S(=O)(=O)N(C)CC(=O)Nc3ccc(F)cc3)cc2s1
- CBX7 inh: 1.12
- CBX7 inh z-score: 0.714

(next part)
SMILES | CBX7 inh | CBX7 inh z-score
Cc1nc2nc(C)c(CCC(=O)Nc3ccc(C)c(C)c3)c(C)n2n1 | 0.922 | -0.338
CC1CC(C)CN(C(=O)CNC(=O)Cn2ccc3ccccc3c2=O)C1 (configuration not stated) | 1.11 | 0.922
Cn1nc(CC(=O)NCc2ccc(F)cc2)c2ccccc2c1=O | 1.01 | 0.102
COc1ccccc1NC(=O)c1c(NCc2cccnc2)sc2c1CCCCC2 | 0.581 | -5.87
CCc1cccc(C)c1NC(=O)C1CCN(C(=O)c2cnn(-c3ccccc3)c2-n2cccc2)CC1 | 1.34 | 0.771
Cc1ccc(-c2nc(C#N)c(NCCCn3ccnc3)o2)cc1 | 0.442* | -0.658*
COc1ccc(CNC(=O)c2cn(CC(C)C)c(=O)c3cc(OC)c(OC)cc23)cc1 | 1.04 | 0.0425
Cc1ccc(-c2nnc(NC3CCCCC3)c3ccccc23)cc1S(=O)(=O)NCC1CCCO1 (configuration not stated) | 1.39 | 4.44
CC1=Nc2cc(C(=O)N3CCCCCC3)ccc2Sc2ccccc21 | 1.11 | 1.32
O=C(Nc1nc2c(s1)CCCC2)c1ccccc1O | 0.974 | -0.568
O=C(Cn1c(-c2cncs2)nc2ccccc21)Nc1ccc(F)cc1F | 0.985 | -0.775
CCCn1cc2c(c1-c1ccccc1)c(=O)n(C)c(=O)n2C | 1.01 | 0.106
CCOC(=O)c1ccccc1NC(=O)c1nn(-c2ccc(OC)cc2)c(=O)c2ccccc12 | 1.04 | 0.245
COc1ccc(CCNC(=O)C2CCN(c3ccc(N4CCOCC4)nn3)CC2)cc1OC | 0.975 | -1.15
CCN1C(=O)c2ccccc2S(=O)c2ccc(C(=O)NCCN3CCCCCC3)cc21 (configuration not stated) | 1 | 0.0934

Part of the list above, as labelled records.
CC1CC(C)CN(C(=O)CNC(=O)Cn2ccc3ccccc3c2=O)C1 (configuration not stated)
- CBX7 inh: 1.11
- CBX7 inh z-score: 0.922

Cn1nc(CC(=O)NCc2ccc(F)cc2)c2ccccc2c1=O
- CBX7 inh: 1.01
- CBX7 inh z-score: 0.102

COc1ccccc1NC(=O)c1c(NCc2cccnc2)sc2c1CCCCC2
- CBX7 inh: 0.581
- CBX7 inh z-score: -5.87

CCc1cccc(C)c1NC(=O)C1CCN(C(=O)c2cnn(-c3ccccc3)c2-n2cccc2)CC1
- CBX7 inh: 1.34
- CBX7 inh z-score: 0.771

Other structures:
SMILES | CBX7 inh | CBX7 inh z-score
CCOC(=O)c1c(NC(=O)COc2cccc(C(F)(F)F)c2)sc(C)c1C | 0.989 | -0.15
Cc1ccccc1OCc1nc2c3c4c(sc3ncn2n1)CCCC4 | 1.16 | 3.15
COC(=O)c1ccc(NC(=O)c2c(NCc3ccc(OC)c(OC)c3)sc3c2CCCC3)cc1 | 0.768 | -12
COc1cc(-n2c(C)nc3cc(C(=O)NCC4CCCO4)ccc32)cc(OC)c1OC (configuration not stated) | 1.01 | 0.352
Cc1sc2ncn(CC(=O)Nc3c(F)cccc3F)c(=O)c2c1S(=O)(=O)N1CCC(C)CC1 | 1.01 | 0.0706
CCN1C(=O)c2ccccc2S(=O)c2ccc(C(=O)N3CCN(c4ccccn4)CC3)cc21 (configuration not stated) | 1.01 | 0.198
O=C(Nc1ccc(F)cc1)[C@H](Cc1ccccc1)N1Cc2ccccc2C1=O | 0.883 | -0.327
Cc1ccc2nc(C)cc(Nc3ccc(C(=O)O)cc3)c2c1 | 0.959 | -1.47
COC(=O)c1ccc(OCC(O)Cn2cnc3ccccc32)cc1 (configuration not stated) | 1 | 0.0627
CC(=O)N1CCC(N(C(=O)Nc2ccccc2)C2CCCCC2)CC1 | 1.02 | 0.258
Cc1ccc2c(c1)c1c(n2CC(O)CN2CCOCC2)C(=O)CCC1 (configuration not stated) | 0.976 | -0.492
Cc1ccc(OCC(O)CN2CCCCC2C)cc1C (configuration not stated) | 1.06 | 0.87
CN(Cc1ccccc1)c1nnc(NC(=O)c2cc(-c3ccc(Br)cc3)on2)s1 | 0.837 | -0.643
O=C(CN1CC(c2ccccc2)CC1=O)Nc1ccc2ccccc2c1 (configuration not stated) | 0.956 | -0.529
O=C(Nc1ccccc1Cl)c1nc2c(nnn2Cc2cccc3c2OCCO3)c(=O)[nH]1 | 1.11 | 2.42
Cc1nc2cc(C(=O)NCCN3CCOCC3)ccc2n1-c1ccc(OCc2ccccc2)cc1 | 0.986 | -0.611
O=C(Nc1ccccc1)c1cc(-c2ccccc2)n[nH]1 | 0.97 | -0.384
CCc1ccc(NC(=O)C2CCCN(S(=O)(=O)c3cccs3)C2)cc1 (configuration not stated) | 1.02 | 0.677
COc1ccccc1CNC(=O)c1nc(-c2cccc(C)c2)oc1C | 0.638 | -2.9

From PubChem
